Screening results deposited in PubChem BioAssay by The Scripps Research Institute Molecular Screening Center.
OX1R antagonist: antagonists of human orexin 1 receptor | AID 434989 | actives 0.43% (n = 330,000) | CHO/OX1R cells, Fluo-8 calcium fluorescence, orexin A | O43613 | inhibition, % at 5 µM;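 active means inhibition above its plate's threshold, mean inhibition of all tested compounds on the plate plus 3 SD, cut at about 37% in these data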;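 further: 0% = orexin A challenge wells and 100% = SB-334867-A antagonist wells; not every result past the cut was called active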
Target sequence (O43613 whole entry, looked up): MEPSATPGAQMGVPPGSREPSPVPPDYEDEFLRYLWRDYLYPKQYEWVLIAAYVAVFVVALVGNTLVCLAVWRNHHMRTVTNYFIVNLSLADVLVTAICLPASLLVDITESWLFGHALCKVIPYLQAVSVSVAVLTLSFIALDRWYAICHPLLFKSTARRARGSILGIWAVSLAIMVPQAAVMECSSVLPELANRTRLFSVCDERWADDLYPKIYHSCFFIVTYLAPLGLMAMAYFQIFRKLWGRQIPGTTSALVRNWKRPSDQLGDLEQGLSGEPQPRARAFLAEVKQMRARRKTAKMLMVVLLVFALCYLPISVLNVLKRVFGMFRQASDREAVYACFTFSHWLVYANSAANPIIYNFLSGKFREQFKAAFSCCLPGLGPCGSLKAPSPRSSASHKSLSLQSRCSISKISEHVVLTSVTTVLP
Starred values were filed as active, the others as inactive.

SMILES | OX1R antagonist
C=CCOc1ccc(/C=C/C(=O)OCC(=O)NCC(=O)Nc2c(C)cc(C)cc2C)cc1 | -17
Cc1cc(Cl)ccc1NC(=S)NCc1ccccc1Cl | -2
COc1ccc(S(=O)(=O)NC2(C(F)(F)F)N=C3SCCN3C2=O)cc1 (configuration not stated) | -2
O=C(NCCN1CCCOC1=O)C(=O)NCCN1CCCOC1=O | -6
COc1cccc(C2CC(c3cccc(NS(C)(=O)=O)c3)=NN2C(=O)c2ccccc2)c1OC (configuration not stated) | -29
COc1ccc(-c2cc(C(=O)OCC(=O)NC(C)(C)C)c3ccccc3n2)cc1 | -15
Cc1ccc2c(c1)CCCN2C(=O)CSc1ccccc1 | -26
Cc1csc(NC(=O)c2cc(C)oc2C)n1 | -14
Cc1ccc(-c2csc(N3CCC[C@@H]3C(=O)NCCn3c(C(F)(F)F)nc4ccccc43)n2)cc1 | -37
CCOC(=O)c1sc(NS(=O)(=O)c2ccc(C)cc2)nc1C | -22
Cc1ccnc(NS(=O)(=O)c2ccc(NC(=O)Cc3ccc(Br)cc3)cc2)n1 | -4
CN(C)c1ccc(/C=N/n2ncc3ccccc32)cc1 | 2
CCC(C)[C@H](NC(=O)NCCCN1CCOCC1)C(=O)OC (some centres not stated) | -11
CCN(CC)S(=O)(=O)c1ccc(/C=C/C(=O)OCC(=O)N(C(C)C)C(C)C)cc1 | -13
c1ccc(C(c2nnnn2Cc2ccco2)N2CCN(c3nc4ccccc4s3)CC2)cc1 (configuration not stated) | -24
CC(C)[C@@H](CO)NC(=O)c1ccc2c3n(nc2c1)-c1ccccc1CO3 | -20
c1ccc2c(-c3c[nH]c4ccccc34)c3ccccc3nc2c1 | -27
CN1CCC(=O)N(CCOc2ccccc2)CC1 | -3
COc1ccc(-c2nc(CS(=O)CC(=O)NCC3CCCO3)c(C)o2)cc1 (configuration not stated) | -26
Cn1c(=O)c2c(SC3CCCC3)nc(C3CC3)nc2n(C)c1=O | -13

Quoted from the listing for reference:
SMILES | OX1R antagonist
O=C(NCCN1CCCOC1=O)C(=O)NCCN1CCCOC1=O | -6
COc1cccc(C2CC(c3cccc(NS(C)(=O)=O)c3)=NN2C(=O)c2ccccc2)c1OC (configuration not stated) | -29
COc1ccc(-c2cc(C(=O)OCC(=O)NC(C)(C)C)c3ccccc3n2)cc1 | -15
Cc1ccc2c(c1)CCCN2C(=O)CSc1ccccc1 | -26
Cc1csc(NC(=O)c2cc(C)oc2C)n1 | -14
Cc1ccc(-c2csc(N3CCC[C@@H]3C(=O)NCCn3c(C(F)(F)F)nc4ccccc43)n2)cc1 | -37
CCOC(=O)c1sc(NS(=O)(=O)c2ccc(C)cc2)nc1C | -22
Cc1ccnc(NS(=O)(=O)c2ccc(NC(=O)Cc3ccc(Br)cc3)cc2)n1 | -4
CN(C)c1ccc(/C=N/n2ncc3ccccc32)cc1 | 2
CCC(C)[C@H](NC(=O)NCCCN1CCOCC1)C(=O)OC (some centres not stated) | -11
CCN(CC)S(=O)(=O)c1ccc(/C=C/C(=O)OCC(=O)N(C(C)C)C(C)C)cc1 | -13
c1ccc(C(c2nnnn2Cc2ccco2)N2CCN(c3nc4ccccc4s3)CC2)cc1 (configuration not stated) | -24
CC(C)[C@@H](CO)NC(=O)c1ccc2c3n(nc2c1)-c1ccccc1CO3 | -20
c1ccc2c(-c3c[nH]c4ccccc34)c3ccccc3nc2c1 | -27
CN1CCC(=O)N(CCOc2ccccc2)CC1 | -3
COc1ccc(-c2nc(CS(=O)CC(=O)NCC3CCCO3)c(C)o2)cc1 (configuration not stated) | -26
Cn1c(=O)c2c(SC3CCCC3)nc(C3CC3)nc2n(C)c1=O | -13

Further structures.
SMILES | OX1R antagonist
Cn1nccc1C(=O)N(CCN1CCCCC1)CC1CCCN(C2CCCC2)C1 (configuration not stated) | 0
COc1ccc(-c2nnc(SC(C)C(=O)Nc3nccs3)n2Cc2ccccc2)cc1OC (configuration not stated) | -34
COc1ccc(OC)c(CNS(=O)(=O)c2cc(CN3C(=O)c4cccnc4C3=O)ccc2OC)c1 | -23
Cc1ccc(S(=O)(=O)Nc2ccccc2/C=N/c2nc3ccccc3n2C)cc1 | -11
CC(=O)/C(C=Nc1noc(C)c1Br)=C(\C)O | -12
O=C(CCC1CCCC1)N1CCN(C(=O)COc2ccccc2)CC1 | -25
Fc1ccc(F)c(C2=NNC(=NCC3CCCO3)SC2)c1 (configuration not stated) | -35
Cc1cc(NC(=O)C2CC(c3cccc(Br)c3)=NO2)no1 (configuration not stated) | -14
O=C(CSc1nc2ccccc2c(=O)n1NC(=O)Cc1ccccc1)NCCc1ccccc1 | -14
COc1cc(C(=O)c2ccccc2)c([N+](=O)[O-])cc1OC | -17
Cc1cc(C)n2ncc(C(=O)Nc3ccc(Cl)c(Cl)c3)c2n1 | -14
CC(=O)c1sc(NC(=O)c2cc(=O)c3ccccc3o2)nc1C | 4
O=C(CSc1nnc(CNC(=O)c2cccc(C(F)(F)F)c2)o1)NCC1CCCO1 (configuration not stated) | -29
O=c1c2ccccc2nc(-c2ccccc2)n1CCCN1CCOCC1 | -11
COc1ccc(CNS(=O)(=O)c2ccc(F)c(C(=O)Nc3ccc(OC)cc3)c2)cc1 | -6
CCn1c(SCC(=O)Nc2ccc(N(C)C)cc2)nnc1C1CC1 | -20
O=C1CCCC2=C1C(c1cccs1)CC(=O)N2c1ccc(F)cc1 (configuration not stated) | -16
O=C(COC(=O)c1ccc(S(=O)(=O)NCc2ccco2)cc1)NCCC1=CCCCC1 | 4
CCn1c(SCC(=O)Nc2ccc(N(C)C)cc2)nnc1-c1ccco1 | -21
COc1ccccc1N1CCN(c2nc3ccccn3c(=O)c2C=O)CC1 | -23
Cc1cc(C)c(S(=O)(=O)N2CCOC2CNC(=O)C(=O)NCc2ccccn2)c(C)c1 (configuration not stated) | -14
CC(=O)c1c(CC(=O)O)[nH]n(-c2nc3ccccc3s2)c1=O | -9
O=C(NCCO)c1cccc(Cl)c1 | -8
Cc1cc(C)c(C#N)c(SCc2c(F)cccc2[N+](=O)[O-])n1 | -34
COc1ccc(NC(=O)c2ccc3c(c2)n(C)c(=O)n3C)cc1 | -23
CCCCc1nnc(NC(=O)c2ccc(N3CCCC3=O)cc2)s1 | -28
Cc1cc2oc3c(c(=O)c2cc1C)C(c1ccc(F)cc1)N(CCCN1CCOCC1)C3=O (configuration not stated) | -22
C=CCNC(=O)NC(=O)COC(=O)/C=C/c1cccc([N+](=O)[O-])c1 | 1
COc1ccc(-c2cc(=Nc3ccc(C)cc3)c3ccccc3o2)cc1 | -32
O=C(CCn1c(=O)sc2ccccc21)Nc1cccnc1 | -14
COc1ccc(C)cc1N(CC(=O)Nc1cccnc1)S(=O)(=O)c1ccc(C)cc1 | -18
Cc1ccc(N2CCN(C(=S)c3ccc(N(C)C)cc3)CC2)cc1 | -14
COc1ccc(OCCC(=O)NCC23CC4CC(CC(C4)C2)C3)cc1 | -21
CC1(C)CC2(CCO1)OC(=O)CC2C(=O)Nc1ccccc1Cl (configuration not stated) | -15
CCOc1ccccc1CNC(=O)C1CCN(C(=O)N2CC(C)Oc3ccc(C)cc32)CC1 (configuration not stated) | -31
O=Cc1ccc2ccc3cccnc3c2n1 | 0
Cc1ccc2c(cnn2C(=O)CCCC(=O)NCc2ccc(Cl)cc2)c1 | -30
CCCN(CCC)CC(O)Cn1cc(/C=C/C(=O)c2cccs2)c2ccccc21 (configuration not stated) | -21
O=S(=O)(NCCNS(=O)(=O)c1cccs1)c1cccs1 | -3
O=C(OCC#CCSc1nnc(-c2ccc(Br)cc2)o1)c1cccs1 | -17
O=S(=O)(N/N=C\c1ccc(-c2ccccc2Cl)o1)c1ccccc1 | -10
CC1=C(C(N)=O)C(c2ccc(C)o2)C(C(N)=O)=C(C)N1 | -9
CCSc1nc2[nH]ncc2c(=O)[nH]1 | 0
OC1(C#CCN2CCCC2)CCCCC1 | 12
CCOc1ccccc1NC(=O)c1cccc2c1C(=O)N(C1CCCCC1)C2 | -12
CCOC(=O)C(C)Sc1nnc(Cc2cc(=O)[nH]c(=O)[nH]2)n1-c1ccc(Cl)cc1 (configuration not stated) | -12
CNC(=S)/N=C/NOCc1c(Cl)cccc1Cl | 8
COC(=S)Nc1cccc(C(F)(F)F)c1 | -9
Cc1ccc(S(=O)(=O)CCSc2nc(C)cc(C)c2C#N)cc1 | -7
C/C(CC(=O)NC12CC3CC(CC(C3)C1)C2)=N\NC(=O)Cc1cccs1 | -18
COC(=O)CSc1nccc(C)n1 | -1
O=C(Nc1nnc(C2CC2)s1)C1=NN(C2CCS(=O)(=O)C2)C(=O)CC1 (configuration not stated) | -9
COC(=O)c1ccc(COc2cccc3c2OC(C)(C)C3)cc1 | -10
Cc1ccc(CSCc2ccc(C(=O)NCC3CCCO3)o2)cc1 (configuration not stated) | -26
CC(C)c1nnc(NC(=O)CCS(=O)(=O)Cc2ccccc2)s1 | -13
CCC1C(=O)NCCN1C(=O)c1ccc2nc(Cc3ccc(OC)cc3)oc2c1 (configuration not stated) | -13
CCCCN(CC(=O)NCc1ccc(Cl)cc1)S(=O)(=O)c1ccc2c(c1)OCCO2 | -24
Cc1cc(S(=O)(=O)N2CCCC2)ccc1OCC(=O)NC1CCCC1 | -14
COc1ccc(-c2nnc(S/C(=C/c3ccc(Cl)cc3)C(=O)O)o2)cc1 | -35
O=C(CSC1CC(=O)N(CCc2ccccc2)C1=O)Nc1ccc(Cl)cc1 (configuration not stated) | 9
(continued)
SMILES | OX1R antagonist
Cc1ccc(CNS(=O)(=O)c2ccc3c(c2)CCN3C(=O)CCCC(=O)O)cc1 | -6
COc1cc(C)c(C(C)C)cc1S(=O)(=O)N1CCN(C)CC1 | -10
CC12CCC(=O)N1C(C(=O)O)Cc1c2[nH]c2ccccc12 (configuration not stated) | 1
Cc1ccc(Cl)cc1N1CCN(Cc2nc3ccsc3c(=O)[nH]2)CC1 | -29
O=C(NCc1ccccc1Cl)c1cccc(OC2CCN(C(=O)C3CC3)CC2)c1 | -31
CC(=O)Nc1cccc(-c2nnc(SCC(=O)n3c4c(c5ccccc53)CCCC4)n2C)c1 | -13
COCc1cc(/C=N\NC(=O)COc2ccc(Cl)cc2)ccc1OC | -16
COCCN(C(=O)CNC(=O)c1ccco1)C(C(=O)NC1CCCC1)c1ccccc1F (configuration not stated) | -12
C/C(=N\NC(=O)C(=O)Nc1cccc(Cl)c1C)c1ccncc1 | -12
c1ccc(Cc2nnc3sc(-c4ccc5c(c4)OCO5)nn23)cc1 | -5
O=C(CSc1ccccn1)N1CCN(C(=O)CSc2ccccn2)CC1 | 7
O=C(O)c1ccc2c(c1)nnn2C1CCCCC1 | -11
CN(C)S(=O)(=O)c1cccc(NC(=O)COC(=O)CCC(=O)c2ccc(F)cc2)c1 | -7
CCOC(=O)c1cccc(NC(=O)/C=C/c2cccc([N+](=O)[O-])c2)c1 | -16
COc1ccccc1-n1c([S-])c(C(=O)Nc2ccccc2C(F)(F)F)[n+]2ccc(C(=O)NCCO)cc12 | -6
COC(=O)c1ccc(CSc2nnnn2C)o1 | -48
CC(=O)c1cccc(N(C(=O)c2csnn2)C(C(=O)NC2CCCC2)c2ccccc2)c1 (configuration not stated) | -9
CCCSC1=C(C#N)C2(CCCCC2)C(C#N)=C(N)N1 | -27
CCc1cccc(C)c1NC(=O)C1C2CCC(O2)C1C(=O)O (configuration not stated) | -16
On1cnnc1-c1ccccc1 | -7
Cc1nc(-c2ccccc2)sc1-c1ccnn1C | -8
COc1ccc(-n2nc([N+](=O)[O-])c(=NCc3ccc4c(c3)OCO4)n2O)cc1 | -5
N#Cc1c(SCC(N)=O)nc2c(c1-c1ccncc1)CCCC2 | -4
Cc1onc(-c2ccccc2)c1C(=O)Nc1nnc(N2CCCCCC2)s1 | -30
CCOC(=O)c1c(S(=O)(=O)N2CCN(C)CC2)c(C)n(C)c1C | -14
Cn1c(SCc2ccccn2)nnc1-c1cnccn1 | -12
CC(NS(=O)(=O)c1ccc(Br)cc1)C(c1cccs1)N1CCN(C)CC1 (configuration not stated) | -23
O=C(NCc1ccc2c(c1)OCO2)c1ccccc1 | -5
Cc1cc(C(=O)C(C)Sc2cccc[n+]2[O-])c(C)n1-c1ccc(Cl)cc1 (configuration not stated) | -13
Cn1c(NC(=O)C2CC2)cc(=O)n(C)c1=O | -9
Cc1coc2c1c(C)cc1oc(=O)c(CC(=O)NCCC(=O)O)c(C)c12 | 0
CCOC(=O)Cn1c(Br)nc2c1c(=O)[nH]c(=O)n2C | 5
O=C(NC1CCSC1=O)c1ccc(Oc2cccc(C(F)(F)F)c2)nc1 (configuration not stated) | -8
C/C(CC(=O)Nc1ccccc1Cl)=N\NC(=O)C(=O)NCCO | -12
COc1cccc2cc(C(C)N(CCCN3CCOCC3)C(=S)Nc3cccc(C)c3)oc12 (configuration not stated) | -27
O=C(O)c1cccc(NC(=O)c2ccc(CN3C(=O)c4ccccc4C3=O)cc2)c1 | 3
Cc1cccc(Nc2nc(N)c([N+](=O)[O-])c(N3CCCC(C)C3)n2)c1 (configuration not stated) | -16
COc1ccc(C2CC(c3ccccc3)=NN2C(=O)COC(=O)c2cccnc2Cl)cc1 (configuration not stated) | -1
O=C(/C=C/c1cc([N+](=O)[O-])ccc1OC(F)F)NCc1ccc(Cl)cc1 | -13
CCCCn1c(N)c(N(CC(C)C)C(=O)CN(C)S(=O)(=O)c2ccc(F)cc2)c(=O)[nH]c1=O | -23
Cc1cc(C)n(CC(O)COc2c(C)cccc2C)n1 (configuration not stated) | -7
O=C(Nc1cccc(Cl)c1)N1CCC(CO)(CCOc2ccccc2)CC1 | -20
CCc1cccc(NC(=O)c2cccc3c2C(=O)N(C2CCCCC2)C3)c1 | -24
Cc1ccc(NC(=O)n2ncc3c(C)cccc32)c(C)c1 | -8
O=C(CN1C(=O)C2CC=CCC2C1=O)NC1CCCCC1 (configuration not stated) | -4
CC(=O)Nc1ccc(OCC(=O)N2CCC(Cc3ccccc3)CC2)cc1 | -14
O=C(c1ccc(N2CCN(S(=O)(=O)c3ccccc3)CC2)c([N+](=O)[O-])c1)N1CCOCC1 | -12
Cc1nnc2sc(-c3csc4c3CCCC4)nn12 | -30
CCOC(=O)c1ccc2c(c1)nc(SCc1cn3ccsc3n1)n2CC | -32
Cc1ccc(CNC(=O)CN(C)S(=O)(=O)c2cnc[nH]2)cc1 | -13

Fetched by structure from the entries so far (2):
SMILES | OX1R antagonist
CCOC(=O)Cn1c(Br)nc2c1c(=O)[nH]c(=O)n2C | 5
COCc1cc(/C=N\NC(=O)COc2ccc(Cl)cc2)ccc1OC | -16

Some of the compounds tested, and most or all hits are left out here.
